HPGD block: HPGD (human) dehydrogenase inhibition; purified HPGD, NADH fluorescence kinetic, PGE2 substrate; P15428; AID 894; Potency, µM, inactives show at the top dose activity change, negative = inhibition, most hits filed as inhibitors; 150,000 tested, 4.3% active; active = well fitted inhibition curve with a large enough effect (not every such curve was filed as active); inconclusive = small, poorly fitted or top-dose-only effect, or another doubt; inactive = no such curve, though single readings can be large or run the other way;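 also: top concentration of the series not given in the record; plate controls included wells without enzyme; inactives centre near -10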
Target sequence (P15428 whole entry, looked up): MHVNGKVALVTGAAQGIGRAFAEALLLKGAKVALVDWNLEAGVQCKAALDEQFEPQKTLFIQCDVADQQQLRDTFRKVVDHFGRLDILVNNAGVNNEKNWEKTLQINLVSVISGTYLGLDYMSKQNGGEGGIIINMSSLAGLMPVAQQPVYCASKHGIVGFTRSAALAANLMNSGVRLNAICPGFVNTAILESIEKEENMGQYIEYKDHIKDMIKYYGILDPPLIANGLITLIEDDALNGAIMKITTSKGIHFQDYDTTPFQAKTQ
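NADH formation kinetics: reaction with 30 uM PGE2 and 1 mM NAD+ (final), 20 nM enzyme, Tris-HCl pH 8 with Tween 20, after 15 min compound preincubation at room temperature. Fluorescence change, last versus first of five reads.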
* hit, by the source's call; ? = inconclusive; & = joins results of further samples. % is scaled to controls: 0 for no effect and ±100 for the full control effect; potency is read from the fitted curve at half-maximal effect.

SMILES	HPGD block
CCc1ccc(CNc2ccc3c(c2)ncn3C)cc1	?
CCOc1cc(C2C(C#N)=C(N)Oc3n[nH]c(CC)c32)ccc1OCCN1CCOCC1 (configuration not stated)	-16%
CCCCC(CC)Cn1c(O)c(/C=C2\C=NN=C2c2ccccc2)sc1=S (configuration not stated)	-9%
Cc1ccc(S(=O)(=O)c2nc(S(C)(=O)=O)sc2NCc2ccc3c(c2)OCO3)cc1	-13%
CN(c1ccc(OCC(=O)N2CCC(C(N)=O)CC2)cc1)S(=O)(=O)c1cccs1	-6%
N/C(COc1ccccc1)=N\NS(=O)(=O)c1ccccc1	-5%
CCOC(=O)c1c(C)n(C)c2ccc(OCC(N)=O)cc12	-2%
CC(C)=CC(=O)Nc1ccccc1C(N)=O	-12%
CCOc1cc(N2CCOCC2)c(OCC)cc1NS(=O)(=O)c1ccc(Cl)s1	-4%
CCOC(=O)c1cccc(NC(=O)C2(S(=O)(=O)c3ccc(C)cc3)CC2)c1	3%
CCCNC(=O)C(NS(=O)(=O)c1cccc2nsnc12)c1ccccc1 (configuration not stated)	-2%
C=CCc1ccccc1OCCSc1nc2ccc([N+](=O)[O-])cc2s1	-9%
COC(=O)C1C2C=CC3(CN(c4cccc(C)c4)C(=O)C13)O2 (configuration not stated)	-7%
Cc1cc(SCC(=O)c2cccs2)n2nc(C)c(-c3ccccc3)c2n1	?
O=C(c1csnn1)N1CCC2(CCCN(c3ccccn3)C2)CC1	-18%
COc1ccc([N+](=O)[O-])cc1N1C(=O)c2cccc3cccc(c23)C1=O	-9%
CC(=O)/C(C#N)=C1\NC(=O)C(Cc2ccccc2Cl)S1 (configuration not stated)	?
COc1ccc(C2N(C(=O)c3ccccc3)CCN2C(=O)c2ccccc2)cc1	-6%
Cc1cccc(NC(=O)CCS(=O)(=O)c2cccc3nsnc23)c1C	?
O=[N+]([O-])c1cccc(/C([O-])=C(/C(=S)Nc2ccccc2)[n+]2ccccc2)c1	-26%
COC(=O)c1ccc2c(=O)n(CCCCCC(=O)N3CCN(c4ccc(F)cc4)CC3)c(=O)[nH]c2c1	?
O/N=C/c1ccc(OCC(O)COc2ccc(/C=N/O)cc2)cc1	-14%
O=C(Nc1cccc(C(F)(F)F)c1)C1CCCN1S(=O)(=O)c1cccc2cccnc12 (configuration not stated)	2%
CC(=O)Nc1ccccc1NC(=O)CN(C)S(=O)(=O)c1ccc(C)cc1	0%
CC(C)C(C(=O)OCC(=O)c1cccc([N+](=O)[O-])c1)N1C(=O)[C@@H]2[C@H]3CC[C@H](C3)[C@@H]2C1=O (some centres not stated)	-5%
Cc1csc(NC(=O)c2cc(C)oc2C)n1	18µM*
CCOc1cc(CNC(C)(C)CO)cc(Br)c1OCc1ccc(Cl)cc1Cl	-1%
CCCC(=O)Nc1ccc(-c2nc3cc(C)c(C)cc3o2)cc1	?
Cc1ccc[n+](C(C)C(=O)c2ccc(-c3ccccc3)cc2)c1 (configuration not stated)	-11%
CCOc1ccc(C2C(C(=O)C3CC3)N3C=C(C#N)C=CC3C2(C#N)C#N)cc1 (configuration not stated)	-15%
CCNc1nc(N)nc(Oc2ccc(OCCOc3ccc(Cl)cc3Cl)nn2)n1	1µM*
CCN(CCCc1ccccc1)CCCc1ccccc1	-6%&-6%&-2%
O=C(c1ccc(S(=O)(=O)c2ccccc2Cl)c([N+](=O)[O-])c1)N1CCCCCC1	25µM*
O=C(Nc1ccccc1C(=O)N/N=C/c1ccc(F)cc1)c1ccccc1Br	-18%
CC(C)COc1ccc(CNC(=S)NCc2ccccc2)cc1	-23%
COc1ccc(-c2nnc(SC(C)C(=O)Nc3nccs3)n2Cc2ccccc2)cc1OC (configuration not stated)	-21%
CCc1nc2ccccc2c(C(=O)OCC(=O)NCCCN2CCCC2=O)c1C	-14%
N#Cc1ccccc1N=Cc1ccc(Br)cc1	-19%
CCCCNCCOCCOc1ccc(C)cc1[N+](=O)[O-]	-3%
O=C(NC1CCCCC1)c1ccc(Br)o1	-29%
CCOC(=O)N1CCN(c2nc(-c3ccco3)cc(C(F)(F)F)n2)CC1	-16%
CN(C)S(=O)(=O)c1ccc(C(=O)Nc2ccccc2OC(F)(F)C(F)F)cc1	0%
CCCn1c(SCC(=O)c2ccc3c(c2)OCCO3)nc2c1c(=O)n(C)c(=O)n2C	-9%
CCCCNC(=S)N/N=C/C1=CCC2CC1C2(C)C (configuration not stated)	-16%
CCC(C)NC(=O)Cn1cccc1C(=O)c1ccccc1 (configuration not stated)	-9%
O=C(Nc1nnc(-c2ccc3c(c2)CCCC3)o1)C1COc2ccccc2O1 (configuration not stated)	-21%
O=C(c1ccc(S(=O)(=O)N2CCOCC2)cc1)N1CCCc2ccccc21	-3%
O=C(O)c1ccccc1Nc1ccccc1	-20%
CC1(C)OC(=O)N(c2ccccc2)C12C=Cc1cc(Br)ccc1O2 (configuration not stated)	-2%
Cc1cc2nncn2c2ccccc12	-19%
Next structures
SMILES	HPGD block
Cc1ccnc(NC(=O)CCC2COc3ccccc3O2)c1 (configuration not stated)	0%
CCN(CC)C(=O)Cn1c(=O)n(CCCCCC(=O)Nc2ccccc2)c(=O)c2sccc21	-5%
COc1ccc(/C(CC2(O)C(=O)Nc3ccccc32)=N\O)cc1 (configuration not stated)	-19%
O=C(CSc1nc(-c2ccccc2)c(-c2ccccc2)o1)Nc1nncs1	-8%
CCOC(=O)C(c1ccc(OC)c(OC)c1)C1c2ccccc2C=C(C)N1C(=O)OC (configuration not stated)	-4%
CCCc1[nH]nc2c1C(c1cccc(OC)c1)C(C#N)=C(N)O2 (configuration not stated)	-1%
C=CCNC(=O)C1CC(=O)N(c2ccc(Br)cc2)C1 (configuration not stated)	-14%
CCCCCOC(=O)C1=C(C)Nc2nnnn2C1c1ccc(OC)c(OC)c1OC (configuration not stated)	-10%
Cn1c(COc2ccccc2)nnc1SCC(=O)c1cccc([N+](=O)[O-])c1	?
CC(C)n1nnnc1SCC(=O)Nc1ccc2c(c1)OCO2	2%
Cc1cccc(NC(=O)CN2C(=O)N/C(=C/c3ccc(C)s3)C2=O)c1	-18%
CCCCc1nc2c(c3c1C[C@H](C)OC3)CN(S(=O)(=O)c1ccc3c(c1)OCCN3C)CC2	-10%
C=C(C)Cn1c(SCC(=O)O)nc2c1c(=O)[nH]c(=O)n2C	-12%
CNC(=S)N(CCc1c(C)[nH]c2ccc(Cl)cc12)Cc1cc(OC)c(OC)c(OC)c1	-15%
Cc1cc2n(n1)SC(Nc1ccccc1)N2 (configuration not stated)	-15%
N#CC1=C(N)SC(N)=C(C#N)C1CCc1ccccc1	14µM*
COc1ccc(S(=O)(=O)N2c3cc(C)ccc3OCC2C(C)(C)C)cc1 (configuration not stated)	-15%
Cc1cc2cc(CCNC(=O)c3ccc(C)c([N+](=O)[O-])c3)c(=O)[nH]c2cc1C	-19%
c1ccc2c(c1)Cn1c-2nc2ccccc21	-28%
NS(=O)(=O)c1ccc(CNC(=O)C2CCCCC2)cc1	-12%
COc1cccc(/C=N/Nc2nc(N3CCCC3)nc(N3CCCC3)n2)c1O	-29%
COCCCNC(=O)c1ccc(CNS(=O)(=O)c2ccc(NC(C)=O)cc2)cc1	?
c1ccc(-c2onc3cc4c(cc23)OCCO4)cc1	3%
CCOC(=O)COc1c(OC)cc(Cl)cc1C1Nc2ccccc2C(=O)N1c1ccccc1 (configuration not stated)	?
COC(=O)c1ccccc1N(Cc1ccccc1)S(C)(=O)=O	3%
Cc1ccc(C)c(NC(=S)NC(NC(=O)OCc2ccccc2)C(Cl)(Cl)Cl)c1 (configuration not stated)	-6%
COC(=O)c1ccc(NC(=O)CCN2CCN(c3ccccc3)CC2)cc1	-12%
CCOc1ccc(NC(=O)c2ccc(OC)cc2)cc1	-18%
Cc1cc(C)c(S(=O)(=O)n2c([N+](=O)[O-])cnc2C)cc1C	-11%
CCOC(=O)c1c(NC(=O)C2c3ccccc3Oc3ccccc32)sc(C(=O)N(CC)CC)c1C	-28%
CCNC(=O)COC(=O)c1csc2c1CCCC2	-3%
C=CCSc1nnc(NC(=O)CSc2nc(CCC)cc(=O)[nH]2)s1	20µM*
Cc1nn(-c2ccccc2Cl)c2sc(C(=O)Nc3nnc(C4CC4)s3)cc12	?
COC(=O)C(C)N(C(=O)c1ccc(Cl)cc1)c1c(C)cccc1C (configuration not stated)	-3%
CCCCC(CC)COCCCN (configuration not stated)	-3%
COC(=O)c1ccc(CSc2nncn2C)cc1	-13%
O=C(COc1ccc(F)cc1)Nc1nnc(-c2ccncc2)s1	?
Cc1cc(C)cc(NC(=O)CCN2CC(C)OC(C)C2)c1 (configuration not stated)	-5%
COc1ccc(N2CCN(C3CC(=O)N(C)C3=O)CC2)cc1 (configuration not stated)	2%
CN1CCN(c2ncc3ncc(=O)n(Cc4cccs4)c3n2)CC1	?
CCn1ncc(Br)c1C(=O)Nc1ccc(C(=O)OC(C)C)cc1	-13%
Cc1cccc(-c2n[nH]c(=S)n2/N=C/c2ccc(C)s2)c1	4µM*
O=S(=O)(NCc1ccccn1)c1ccccc1	-12%
CC(=O)C1=C(C)NC(=O)NC1c1cc(Br)ccc1OCC(N)=O (configuration not stated)	-4%
Cc1cccc(NC(=S)NC2CCN(Cc3ccccc3)CC2)c1C	2%
COc1ccc2nc(N3CCCC(O)C3)c(C#N)cc2c1 (configuration not stated)	-12%
CN(C)C(=O)n1nnnc1Cc1ccc(-c2ccccc2)cc1	-11%
S=C(Nc1cccc(Cl)c1)Nc1ccc2cn[nH]c2c1	-14%
COc1ccc(NC(=O)N2CCCC3(CCN(C(=O)c4ccncc4)CC3)C2)cc1	-25%
O=C(Nc1ccc(Cl)c(Cl)c1)Oc1ccc(NC(=O)c2ccco2)cc1	-13%
(continued)
SMILES	HPGD block
Clc1ccc(CNc2ccc3nnc(-c4ccccc4)n3n2)cc1	-4%
CCNc1cc2n(c(=O)n1)CCc1cc(OC)c(OC)cc1-2	?
CC1=C(C)[N+](=O)C2CCCCC2N1[O-] (configuration not stated)	-3%
CCC/C(=N/NC(=O)c1ccc2c(c1)OCO2)c1cccs1	16µM*
Cc1ccc(/C=N/n2c(C3CCCCC3)n[nH]c2=S)o1	28µM*
O=C(Nc1ccc(NC(=O)c2sc3ccccc3c2Cl)cc1)c1ccco1	?
C[C@@H]1C[C@H]2[C@@H]3CCC4=CC(=O)C=C[C@]4(C)[C@@]3(F)[C@@H](O)C[C@]2(C)[C@H]1C(=O)CO	-10%
COc1ccccc1NC(=S)N(Cc1ccco1)Cc1cc2cc(C)ccc2[nH]c1=O	-10%
CC(C)=CCC[C@](C)(O[C@@H]1O[C@H](CO)[C@@H](O)[C@H](O)[C@H]1O)[C@H]1CC[C@]2(C)[C@@H]1[C@H](O)C[C@@H]1[C@@]3(C)CC[C@H](O[C@@H]4O[C@H](CO)[C@@H](O)[C@H](O)[C@H]4O[C@@H]4O[C@H](CO)[C@@H](O)[C@H](O)[C@H]4O)C(C)(C)[C@@H]3[C@@H](O)C[C@]12C	-5%
CCc1ccc2[nH]c(O)c(N=Nc3nc(-c4ccccc4)cs3)c2c1	-8%
O=C(Nc1nc2c(s1)CCCC2)C1CCCN1C(=O)c1cccs1 (configuration not stated)	-11%
COc1cc(OC)c2c(-c3cccc(-c4cccc(N)c4)c3)cc(=O)oc2c1	-16%
N#Cc1ccc(C(c2nnnn2CCc2ccccc2)N2CCCCCC2)cc1 (configuration not stated)	1%
O=C1CC(N2CCN(C(c3ccccc3)c3ccccc3)CC2)C(=O)N1 (configuration not stated)	3%
Cn1ccnc1SCC(=O)Nc1ccc2c(c1)COC2=O	-4%
O=C(COC(=O)c1ccc([N+](=O)[O-])o1)NC1CCS(=O)(=O)C1 (configuration not stated)	-12%
CN(C)CCCNC(=O)CCc1nc2ccccc2c(=O)[nH]1	0%

The list is partial; rates above refer to the full screens.
